# MT1-MMP act inh: inhibitors of human MT1-MMP activation | P50281 | HT1080 RFP-PRO-GFP cells, GFP/RFP ratio fluorescence, overnight; percent of plate control window, DMSO zero | GFP/RFP ratio change, % at 20 µM | 360,000 compounds, 0.061% hits | AID 651647;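 active means GFP/RFP ratio change of at least 30% with cell ATP level not reduced by more than half and red fluorescence within 50% of control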; further: strong numbers were not always called active
#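 Material – HT1080 RFP-PRO-GFP cells · Control set – DMSO wells and RFP-L50D-GFP cells · Incubation – overnight cell settling, then overnight compound exposure, 37 °C, 5% CO2 · Compound dosing – single-point 20 µM compound, 1% DMSO · Read-out – GFP/RFP fluorescence ratio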
# HIV Env fusion: inhibitors of HIV Env-mediated cell fusion. inhibition, % at 12.3 µM. HeLa-JRFL Env/CEM21 cell fusion, luciferase. 360,000 compounds, 1.1% hits;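 active means mean replicate inhibition score of at least 50 and every replicate individually at or above 50; inconclusive means only one of the two criteria met; inactive means mean below 50 and not all replicates reaching 50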;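 further: 0% = plate neutral controls and 100% = maraviroc near 300 nM; one replicate is shown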
# PABP polyA inh: PABP-poly(A) binding inhibition | P11940 | PABP-poly(A) RNA binding, fluorescence polarization | inhibition, % at 35 µM | 290,000 compounds, 1% hits | AID 2014;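 active means 50% or more with normal probe brightness, or confirmed in later tests; inconclusive means above 50% with abnormal brightness, or retests that disagree; inactive means below 50% or failed in later tests; about a fifth of its hits are not listed in these tables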;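 further: calls also rest on retests at 20 µM and on dose response follow-up; controls were probe without protein and protein plus probe with vehicle; some compounds called inactive have numbers as strong as hits; many hits fall short of the cut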
# Target sequence (P11940 whole entry, looked up): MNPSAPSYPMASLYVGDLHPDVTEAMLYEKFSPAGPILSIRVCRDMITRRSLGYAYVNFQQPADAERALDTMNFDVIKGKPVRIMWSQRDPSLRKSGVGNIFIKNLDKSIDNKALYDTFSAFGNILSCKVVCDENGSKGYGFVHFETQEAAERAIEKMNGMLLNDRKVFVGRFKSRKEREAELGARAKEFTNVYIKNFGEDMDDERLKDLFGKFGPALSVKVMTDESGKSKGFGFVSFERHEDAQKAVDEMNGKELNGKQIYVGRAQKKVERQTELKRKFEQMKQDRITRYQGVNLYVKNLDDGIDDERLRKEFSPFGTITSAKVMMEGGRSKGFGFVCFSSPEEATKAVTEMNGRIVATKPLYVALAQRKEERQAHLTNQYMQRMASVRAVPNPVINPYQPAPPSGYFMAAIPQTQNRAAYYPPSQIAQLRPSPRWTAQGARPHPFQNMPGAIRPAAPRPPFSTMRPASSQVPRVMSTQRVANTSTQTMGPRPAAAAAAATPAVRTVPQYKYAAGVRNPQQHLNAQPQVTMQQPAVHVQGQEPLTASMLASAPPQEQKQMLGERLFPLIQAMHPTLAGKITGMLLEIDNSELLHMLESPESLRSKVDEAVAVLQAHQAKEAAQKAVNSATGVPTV
# Rce1 inh: yeast Ras-converting enzyme inhibition. Q03530. yeast membranes, quenched prenylated peptide cleavage fluorescence. calls only. 290,000 compounds, 0.27% hits. AID 2563;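 active means fall in fluorescence gain of 50% or more versus controls, with final raw signal at or below 3038400; inconclusive means same 50% fall but final raw signal above 3038400; inactive means fall in fluorescence gain under 50%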;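 further: plate controls were neutral control wells for no effect and wells lacking membranes for full effect; tested at 10 µM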
# Target sequence (Q03530 whole entry, looked up): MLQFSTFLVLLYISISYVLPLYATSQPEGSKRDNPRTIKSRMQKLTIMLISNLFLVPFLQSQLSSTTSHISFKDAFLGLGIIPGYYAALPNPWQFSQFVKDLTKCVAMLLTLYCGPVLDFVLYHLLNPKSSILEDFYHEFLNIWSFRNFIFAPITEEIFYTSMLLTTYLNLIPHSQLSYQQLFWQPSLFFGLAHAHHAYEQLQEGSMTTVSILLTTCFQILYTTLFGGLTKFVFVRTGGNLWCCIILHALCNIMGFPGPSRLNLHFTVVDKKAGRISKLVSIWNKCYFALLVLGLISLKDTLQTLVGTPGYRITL
# eIF4H FP inh: inhibitors of RNA binding by human eIF4H | 290,000 compounds, 0.94% hits | AID 2012 | inhibition, % at 35 µM | eIF4H fluorescence polarization binding assay | Q15056;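 active means 50% or more with normal probe brightness, or confirmed in later tests; inconclusive means above 50% with abnormal brightness, or retests that disagree; inactive means below 50% or failed in later tests; about a fifth of its hits are not listed in these tables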;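 further: calls also rest on retests at 20 µM and on dose response follow-up; 0% = protein and probe with vehicle and 100% = probe without protein; strong numbers were not always called active; many hits fall short of the cut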
# CSC inhib: blocks cancer stem cells | cancer stem cell-like cells viability, luminescence | inhibition, % at 7.5 µM | 300,000 compounds, 1.1% hits | AID 2717;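 active means mean at 75% or more and at least half the replicates too; inconclusive means mean and replicates disagree; tested in HMLE shEcad cells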;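 further: 0% = median of negative and 100% = median of positive control wells; the first replicate is given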
# UUG fidelity: yeast start codon fidelity modulation; S. cerevisiae UUG-firefly luciferase reporter, luminescence/redox ratio; activity score, % at 18.7 µM; 350,000 compounds, 0.13% hits; AID 602363;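 active means replicate mean at a twofold rise or more, about +100% in these data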;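 further: firefly luciferase made from a UUG start codon reports start codon fidelity; reporter light over untreated wells divided by growth signal over untreated wells; some hits fall short of that in this replicate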
# MT1-MMP act inh RFP: second read-out of MT1-MMP act inh, no call of its own (marks repeat the call); RFP signal change, %; measured here: RFP expression control read;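 0 = vehicle wells; hits needed this value within 50% of zero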
# Active calls of the source: *; i = inactive; ? = inconclusive; · = no result given; & = joins results of further samples. Only part of the results is shown; rates above refer to the full screens.
SMILES,MT1-MMP act inh,MT1-MMP act inh RFP,HIV Env fusion,PABP polyA inh,Rce1 inh,eIF4H FP inh,CSC inhib,UUG fidelity
O=c1oc2ccccc2c2c1ncn2C1CCCCC1,-4,-1,1,-7,i,3,4,-16
COC(=O)CCC(=O)Nc1ccc(NC(=O)CCC(=O)OC)cc1,0,1,·,13,i,-8,-14,·
Cc1ccc(C(=O)CSc2nnnn2Cc2ccccc2)cc1C,-3,0,-7,-12,i,1,-7,·
N#CCSc1nnc(N)s1,-4,1,·,12,i,-7,-5,-8
COc1ccc(Cl)cc1NC(=O)CC1S/C(=N/N=C2CCCCCC2)NC1=O (stereo unspecified),5,8,-106,16,i,14,2,-12
Cc1nc2ncnn2c(C)c1C/C=C/c1ccccc1,4,0,20,-12,i,2,-17,·
Cc1cccc(CC(=O)Nc2ccon2)c1,-3,-2,-13,-6,i,-12,3,-8
Cc1ccc2c(C)nc(Nc3nc(CSc4nnc(C)s4)cc(=O)[nH]3)nc2c1,1,-5,28,-12,i,1,·,-12
C[C@H]1CN([C@@H](C)CO)S(=O)(=O)c2ccc(Br)cc2O[C@@H]1CN(C)C(=O)C1CCOCC1,0,2,-5,·,·,·,·,6&-2
O=C(c1ccccc1)c1cccs1,-2,4,-103,-3,i,-6,1,·
O=C(OCc1c(-c2ccccc2)ncc2ccccc12)c1ccco1,7,-2,-13,·,·,·,-3,0
CCCNC(=O)c1cc(-c2ccco2)on1,10,5,-343,-8,i,-5,31,-8
Cc1cccc(N2CCN(C(=O)CCCCCn3c(=S)[nH]c4ccc(N5CCOCC5)cc4c3=O)CC2)c1C,-2,-21,9,-2,i,-2,71,-19
CN(CC(=O)Nc1ccccc1Br)C(=O)c1cccc(S(=O)(=O)N2CCc3ccccc32)c1,0,-4,7,·,·,·,·,-10
NCCN1CCN(CCN)CC1,3,5,·,39,i,4,·,-21
Cc1cccc(C(=O)NCCCNC(=O)c2cccnc2)c1,4,0,-5,4,i,-16,-3,-13
O=C(CCl)c1ccc2c(c1)CCN2C(=O)C1CC1,·,·,·,-10,i,12,51,·
CS(=O)(=O)N1N=C(c2ccc(Br)cc2)CC1c1ccc2c(c1)OCO2 (stereo unspecified),-26,-8,·,4,i,-7,19,11
CC1=C(C(=O)Nc2ccc(C)cc2C)C(c2cccc([N+](=O)[O-])c2)n2nc(C(=O)OC(C)C)nc2N1 (stereo unspecified),-1,-2,6,3,i,8,-11,·
Clc1ccc(CO/N=C/c2cccs2)cc1,3,4,11,0,i,3,-16,-13
CC(=O)Nc1ccc(NC(=O)CCNC(=O)c2ccccc2Cl)cc1,0,1,-9,-7,i,7,-1,-17
Cc1ccccc1OCC(=O)NNC(=O)Nc1ccc(Cl)cc1,-5,-13,·,-2,i,7,51,-5
Cc1c(C(=O)Nc2ccccc2C(=O)N2CCOCC2)cccc1[N+](=O)[O-],-1,2,-14,7,i,6,11,-24
Cc1cc(=O)oc2cc(OCC(=O)c3ccc4c(c3)NC(=O)CO4)ccc12,-16,-8,8,-5,i,26,-8,·
CCCCC(=O)N(C)c1c(C)nc2ccc(C(=O)N3CCN(c4ccccc4)CC3)cn12,-3,1,4,·,·,·,·,2
# Continuation:
SMILES,MT1-MMP act inh,MT1-MMP act inh RFP,HIV Env fusion,PABP polyA inh,Rce1 inh,eIF4H FP inh,CSC inhib,UUG fidelity
CCOC(=O)N1CCN(C(=O)Cc2ccc(Cl)cc2)CC1,-4,-3,·,-2,i,4,1,15
O=C(OCc1cc(=O)n2ccsc2n1)c1ccc(O)cc1O,-7,8,-19,·,·,·,·,-11
Cc1nc(NCCc2ccc(Cl)cc2)c2nnn(Cc3ccccc3)c2n1,-3,-3,-8,-7,i,-4,-8,0
CCN(CC(=O)Nc1ccc(Cl)c(S(=O)(=O)N(C)C)c1)Cc1nc2ccccc2c(=O)[nH]1,0,1,21,1,i,2,-13,5
Cc1ccc(C)c(C(=O)N2CCN(c3ncccn3)CC2)c1,-4,0,-10,-9,i,-4,0,-7
CCCc1oc(C(=O)O)cc1CN1CCCC1,5,3,·,21,i,2,-1,-9
O=C(O)CCC(=O)Nc1ccccc1C(=O)N1CCN(c2ccc(Cl)cc2)CC1,3,4,4,5,i,2,1,·
COc1ccccc1C(=O)OCc1c(-c2ccccc2)ncc2ccccc12,2,-5,21,·,·,·,·,-1
C=CCn1c(-c2cc3c(s2)CCC(CC)C3)n[nH]c1=S (stereo unspecified),0,-7,-8,9,i,-7,-2,·
CC1=C(C(=O)N2CCOCC2)CC(CC(=O)NC(c2ccccc2)c2ccccc2)C(=O)N1Cc1ccc(F)cc1 (stereo unspecified),3,-4,-4,·,·,·,·,9
CCOC(=O)c1cc(CC)sc1NC(=O)c1ccc(N2C(=O)CCC2=O)cc1,2,-3,·,20,i,-16,12,-22
O=C(COC(=O)/C=C/c1ccc2ccccc2n1)NNC(=O)c1ccccc1,1,-5,-9,·,·,·,·,0
Cc1ccc(-c2ccc(SCC(=O)Nc3ccc4c(c3)OCCO4)nn2)cc1,7,-8,-106,4,i,-4,25,-13
C=CCNC(=O)/C(C#N)=C/c1c(N2CCN(c3ccc(OC)cc3)CC2)nc2c(C)cccn2c1=O,0,-3,31,4,i,1,-9,-13
Cc1nc([N+](=O)[O-])c(Br)n1CC(=O)c1cccc([N+](=O)[O-])c1,-2,-5,-3,4,i,0,-1,·
CCC1Sc2ccccc2N(CC(=O)NC2CCCC2)C1=O (stereo unspecified),1,-1,12,9,i,1,·,-4
COc1ccc(CC(=O)NNS(=O)(=O)c2ccccc2)cc1OC,4,3,12,8,i,0,-1,·
O=S(Cc1ccc(Cl)cc1)CC(O)COc1ccc(Cl)cc1 (stereo unspecified),2,-1,2,-12,i,-7,-12,-9
COc1ccc(N(C)C(=O)C2CCN(S(=O)(=O)c3cccc4nonc34)CC2)cc1,-9,-2,5,3,i,4,-11,-41
CCOC(=O)N1CCc2c(sc3ncn(C)c(=O)c23)C1,0,2,-75,-9,i,-1,-7,·
N#CC1(NC(=O)COc2cc(F)ccc2[N+](=O)[O-])CCCCC1,-2,0,·,·,·,·,7,14
O=[N+]([O-])c1ccc(NCCN2CCOCC2)c([N+](=O)[O-])c1,10,3,-417,0,i,-6,-8,29
CN(CCc1ccccn1)c1ccccc1,1,0,-21,·,·,·,·,-23
CC(C)(C)CNC(=O)[C@]1(C)CCC[C@@]2(C)C3CC[C@@]4(C)C[C@]3(CCC21)CC4=O (stereo partly specified),-5,-9,42,·,·,·,14,1
CC(OC(=O)CNS(=O)(=O)c1ccc(C#N)cc1)C(=O)Nc1cccc(C#N)c1 (stereo unspecified),0,3,0,·,i,·,·,-7
# New compounds follow.
SMILES,MT1-MMP act inh,MT1-MMP act inh RFP,HIV Env fusion,PABP polyA inh,Rce1 inh,eIF4H FP inh,CSC inhib,UUG fidelity
CC(=O)OC[C@H]1O[C@H](C/C=N/OC[C@@H](O)[C@H]2O[C@@H]3OC(C)(C)O[C@@H]3[C@H]2O)C=C[C@@H]1OC(C)=O,·,·,·,10,i,2,5,·
O=C(CSc1nc2ccccc2c(=O)n1-c1ccccc1F)Nc1ccc2c(c1)CCC2,-7,-7,20,4,i,-4,1,-17
O=C1c2ccccc2C(=O)N1CCN1CCc2ccccc21,17,8,-50,12,i,-1,-5,·
CC(OCCN(C)C)C(=O)C12CC3CC(CC(C3)C1)C2 (stereo unspecified),3,1,-1,-4,i,-6,25,-1
COc1cc(C(C)=O)ccc1OCC(O)CNCC(O)c1ccccc1 (stereo unspecified),0,1,0,6,i,9,-14,5
CCN(CC(=O)Nc1ccccc1C(F)(F)F)C(=O)c1ccc2c(c1)NC(=O)C(C)S2 (stereo unspecified),-2,-7,9,·,·,·,·,-7
COC(=O)c1ccc(Sc2ccccn2)c([N+](=O)[O-])c1,6,5,·,-9,i,-4,19,·
CCOCCCn1c(SCC(=O)Nc2ccccc2)nc2ccccc2c1=O,-1,-1,8,0,i,-4,-9,1
CC(C)CN1C(=O)C(NC(=O)C2CC2)(C(F)(F)F)C2=C1CC(C)(C)CC2=O (stereo unspecified),-3,0,·,4,i,1,-6,-4
CSc1nc(Oc2ccc(Cl)cc2)c2sccc2n1,-1,1,·,-7,i,-14,2,-2
CCc1nnc(NC(=O)c2oc3cc(C)c(C)cc3c2C)s1,2,3,16,5,i,6,-2,·
CCc1ccc(C(=O)NNC(=O)C2CC(=O)N(Cc3ccccc3)C2)cc1 (stereo unspecified),1,2,-12,·,i,·,-7,-8
Cc1ccc(Cl)cc1N1CCN(S(=O)(=O)c2c(C)[nH]c(C)c2C(=O)N2CCCC2)CC1,-1,-3,12,16,i,20,-19,10
COc1ccccc1N(CC(=O)N1CCCC1)S(=O)(=O)c1ccc(C)cc1,-1,0,13,-4,i,3,·,10
O=C(Nc1ccsn1)c1ccc(Cl)cc1Cl,1,3,-27,4,i,6,-21,-24
CC(C)c1cc(C(=O)N2CCCC(Nc3ccc(F)cc3)C2)nc(N)n1 (stereo unspecified),4,3,·,0,i,-7,0,-2
COc1ccc(C)c2sc(N(CCN(C)C)C(=O)c3ccc(S(=O)(=O)N(C)c4ccccc4)cc3)nc12,4,2,-7,·,·,·,·,6
C[C@@H]1CCC(=O)N(C[C@@H](C)CSc2ccccc2)CC1,0,-2,-13,-2,i,-3,-8,-9
C=CCOc1ccc(C(=O)Nc2ccccc2C(=O)NCc2cccnc2)cc1,-7,-8,30,16,i,-1,-3,-14
O=C(CN1CCCC1)Nc1cc(C(F)(F)F)ccc1Cl,2,3,-6,-13,i,-4,-2,·
COC(=O)N/N=C(\CCC(=O)O)c1cccs1,-1,5,8,12,i,23,-4,8
CCc1c(C)sc(NC(=O)c2cc(C(C)C)on2)c1C#N,3,0,0,-6,i,-6,3,-17
Cn1ccnc1Sc1nc2ccccc2nc1NS(=O)(=O)c1ccccc1,-11,5,·,?,i,?,1,·
Cc1cccc(N2C(=O)CC(N3CCN(C(=O)c4ccccc4)CC3)C2=O)c1 (stereo unspecified),3,7,-25,10,i,-6,-9,7
COc1cc(/C=C2\SC(=S)N(CCC(=O)NCCc3ccccc3)C2=O)cc(OC)c1OC,-1,2,-3,-4,i,4,-5,-7

# Continued; the last three above are carried over.
SMILES,MT1-MMP act inh,MT1-MMP act inh RFP,HIV Env fusion,PABP polyA inh,Rce1 inh,eIF4H FP inh,CSC inhib,UUG fidelity
Cn1ccnc1Sc1nc2ccccc2nc1NS(=O)(=O)c1ccccc1,-11,5,·,?,i,?,1,·
Cc1cccc(N2C(=O)CC(N3CCN(C(=O)c4ccccc4)CC3)C2=O)c1 (stereo unspecified),3,7,-25,10,i,-6,-9,7
COc1cc(/C=C2\SC(=S)N(CCC(=O)NCCc3ccccc3)C2=O)cc(OC)c1OC,-1,2,-3,-4,i,4,-5,-7
Cc1ccc(C(O)(C(=O)NNc2ccccn2)c2ccc(C)cc2)cc1,2,-2,17,2,i,1,11,-11
CC[C@@]1(C(=O)OC)N[C@H](CN(C)C(=O)c2ccc(C)cc2)[C@@H]2C(=O)N(C)C(=O)[C@@H]21,0,3,6,·,·,·,·,4
O=C(NC(=S)Nc1cccc2cnccc12)c1ccccc1,-15,-9,33,5,i,32,-11,-17
O=C(O)CC(Cc1ccc(Cl)cc1)C(=O)Nc1cc(Cl)ccc1Cl (stereo unspecified),-1,3,7,6,i,1,14,-1
CCOC(=O)Cn1c(=O)n(Cc2ccco2)c(=O)c2ccc(C(=O)NC3CCCC3)cc21,0,-4,-7,8,i,-5,-3,-9
Cc1nnc(SCC(=O)Nc2ccc([N+](=O)[O-])cc2)n1CC1CCCO1 (stereo unspecified),0,1,13,0,i,10,-5,-16
O=C(NN1CCOCC1)c1cccc(Br)c1,2,-2,-17,·,i,·,-8,1
